Compound activity (PubChem BioAssay)
Bead autofluor – flagged as autofluorescent in microsphere protease counterscreen. compound autofluorescence counterscreen, microsphere flow cytometry; active compounds read high. fluorescence intensity (test concentration not listed). hit rate 3.1% among 360,000;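 active = at least 3 SD above the mean of all compounds, about 16000 in these data; inconclusive = too few beads counted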;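 also: 100 nL of 1 mM stock went into each well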
RN4220 kill – kills Staphylococcus aureus RN4220. inhibition, % (no concentration beside the values). hit rate 0.33% among 330,000. AID 1259311. S. aureus RN4220 growth, OD600, 16 h;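 active = z-score of -3 or lower and OD600 up to 0.18 on both plates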;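 also: plate controls were untreated cells for no effect and reference antibiotic for full effect; stock transfer was 100 nL into about 80 µL; one replicate is shown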
BJeLR viability – BJeLR cell viability loss; inhibition, % (no concentration beside the values); BJeLR (HRASV12) viability, CellTiter-Glo ATP luminescence, 48 h; reference of the scale not given here; hit rate 0.17% among 300,000;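 active = replicate mean above 50%; inconclusive = above 50% but judged a plate artefact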;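 also: 50 nL library stock added to about 25 µL; numbers are from one replicate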
PrP UTR inh – inhibition of PrP 5' UTR reporter expression. cell-based PrP 5' UTR mRNA reporter, plate reader. inhibition, % (no concentration beside the values). hit rate 0.35% among 340,000. AID 488862;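 active = every replicate at 50% or more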;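 also: 0 = median of the neutral control wells; tested in H4 reporter cells; numbers are from one replicate; inactives centre near -14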
ugtP null kill – compounds lethal to S. aureus RN4220 ugtP deletion mutant | hit rate 0.54% among 330,000 | AID 1259309 | OD600 growth, 16 h; some inactives read as strong as hits | growth inhibition, % (test concentration not listed);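 active = z-score under -3 and OD600 up to 0.15 on both plates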;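 also: plate controls were untreated wells for no effect and antibiotic for full effect; wells of about 80 µL received 100 nL stock; the first replicate is given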
Mtb hypoxia rep – reduces hypoxia-regulated biosensor signal in M. tuberculosis; M. tuberculosis hypoxia-regulated fluorescent reporter, fluorescence; fluorescence inhibition, % (test concentration not listed); hit rate 0.1% among 300,000; AID 1159583;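 active = 35 to 45% if threefold the growth effect, above 45% if 1.5-fold the growth effect; inactive = the rest, general growth blockers included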;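 also: wells of about 50 µL received 100 nL stock; 0% = vehicle wells and 100% = reference inhibitor wells; whole bacteria with a GFP reporter of the hypoxia response; strong numbers were not always called active; many hits fall short of the cut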
Mtb hypoxia rep growth – further read-out of Mtb hypoxia rep, marked with its call; growth inhibition, %; measured here: M. tuberculosis growth (absorbance);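 0% = vehicle and 100% = reference antibiotic; read after six days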
Starred values were filed as active, the others as inactive; u = inconclusive; x = not tested or not shown.

Value order – Bead autofluor, RN4220 kill, BJeLR viability, PrP UTR inh, ugtP null kill, Mtb hypoxia rep, Mtb hypoxia rep growth
O=C(Cc1ccc(Cl)c(Cl)c1)Nc1cccnc1
  6272, -1.6, -9, -15, 13, 9, 7
CC(OC(=O)CN1C(=O)NC2(CCCC2)C1=O)C(=O)c1ccc(C(C)(C)C)cc1 (centres undefined)
  x, 6.2, 2, -26, 2, -1, -2
COc1ccccc1/C=C/C=Nn1c(-c2ccccn2)n[nH]c1=S
  x, 9.6, x, x, -3, -4, -6
O=C(c1ccccc1-c1ccccc1)N1CCN(c2ccccn2)CC1
  10683, 9.0, 42, -15, 13, 3, 3
O=C(NCc1ccccc1)C(c1ccccc1)N(C(=O)c1csnn1)C1CC1 (centres undefined)
  4029, 5.8, 1, -9, -3, 4, 3
COc1cc(C(=O)NCCc2cn3ccc(C)cc3n2)cc(OC)c1OC
  4941, -5.3, 7, 6, -1, 5, 13
O=C(NC(Cc1ccccc1)C(=O)O)/C(=C/c1cccc(Br)c1)NC(=O)c1ccco1 (centres undefined)
  3408, x, -10, -19, x, x, x
COc1cccc(CNc2ccc(F)c(Cl)c2)c1OC
  13308, 7.1, 3, -20, 20, 8, 14
CCCOc1ccc(C(=O)CCC(=O)OCC(=O)Nc2ccc(Oc3ccccc3)cc2)cc1
  x, 1.0, -11, x, 12, 18, 6
Cc1ccccc1CC1(CO)CCCN(C(=O)c2ccc(F)cc2)C1 (centres undefined)
  4528, 4.8, -8, -24, 2, 8, 16
Cc1nc2ccc(C(=O)N(C)CC3CCCN(CCc4ccc(Cl)cc4)C3)cc2[nH]1 (centres undefined)
  5696, 1.3, -2, -15, 1, 4, 12
CC(C)[C@H](NC(=O)[C@@H]1Cc2c([nH]c3ccccc23)C2c3ccccc3C(=O)N21)C(=O)NCC1CCCO1 (some centres undefined)
  3993, 1.0, -5, -4, 10, x, x
Cc1occc1C(=O)NCCCc1ccccc1
  2809, 0.8, -3, -38, 1, 13, 12
Cc1cccc(-c2n[nH]c(=S)n2/N=C/c2ccco2)c1
  3981, x, -12, -18, x, x, x
CCN(CC)P(=O)(Nc1ccc(Br)cc1)c1c(C)nn(CCC#N)c1NC(=O)c1ccc(Cl)cc1 (centres undefined)
  4501, -2.1, 2, -8, -3, 1, 5
Cn1c(=O)n(Cc2ccccc2)c(=O)c2c1nc1n2CCS1
  8071, 4.7, 4, -39, 1, -80, -10
Cc1ccc2cc(C=NNc3nc4ccccc4[nH]3)c(Cl)nc2c1
  x, -5.6, x, x, 3, 6, -3
CCCCn1c(=N)n(CC(O)COc2cccc(C)c2)c2ccccc21 (centres undefined)
  23566*, -2.3, 7, 6, -29, -7, 15
O=C(COC(=O)/C=C/c1cccc(F)c1)Nc1ccccc1
  4421, x, 9, 4, x, x, x
O=C(c1ccc(Cl)c(Cl)c1)N1CCC(O)(CN2CCOCC2)CC1
  4589, 1.5, -11, -41, 11, 5, 10

Entries of single compounds as entered above.
`COc1cc(C(=O)NCCc2cn3ccc(C)cc3n2)cc(OC)c1OC` is listed as Bead autofluor = 4941; RN4220 kill = -5.3; BJeLR viability = 7; PrP UTR inh = 6; ugtP null kill = -1; Mtb hypoxia rep = 5; Mtb hypoxia rep growth = 13
`O=C(Cc1ccc(Cl)c(Cl)c1)Nc1cccnc1` is listed as Bead autofluor = 6272; RN4220 kill = -1.6; BJeLR viability = -9; PrP UTR inh = -15; ugtP null kill = 13; Mtb hypoxia rep = 9; Mtb hypoxia rep growth = 7

Other structures.
Value order – Bead autofluor, RN4220 kill, BJeLR viability, PrP UTR inh, ugtP null kill, Mtb hypoxia rep, Mtb hypoxia rep growth
O=C(c1cc(F)c(F)cc1Cl)N1CCCCC1
  2046, 2.8, -1, -5, 1, x, x
CC(=O)Oc1cccc(C(=O)Nc2ccc(NC(=O)c3cccs3)cc2)c1
  4651, 1.6, 2, -43, -5, -2, -6
Cc1csc(SCC(=O)Nc2cc(C(C)(C)C)nn2-c2ccccc2)n1
  6872, 8.7, -11, -13, 13, 8, 0
O=C(Cn1nnc(-c2ccccc2F)n1)NCc1ccco1
  4610, 0.8, 7, 0, 7, 16, 14
Cc1ccc(S(=O)(=O)N2CCN(C(=O)[C@H](Cc3ccccc3)NC(=O)c3ccco3)CC2)cc1C
  5703, 10, x, 1, -6, 9, -2
CC(=NNC(=O)c1ccccn1)c1ccc(Cl)cc1
  x, -5.4, x, x, 2, -1, 8
Cc1cccc(NC(=O)C(=O)NCCCN2CCOCC2)c1
  3615, 3.3, -7, -17, 3, 16, 11
CCOC(=O)c1c(C)[nH]c(C)c1S(=O)(=O)N1CCN(c2ccc([N+](=O)[O-])cc2)CC1
  4235, 1.5, -2, 6, 7, 1, -18
Cc1cc(=O)oc2cc(O)c(N=Nc3ccccc3)cc12
  4741, 13, 4, -21, 8, 10, -7
O=C1C2C3C=CC(CC3)C2C(=O)N1c1ccccc1 (centres undefined)
  3086, 2.6, 8, -16, 4, 10, 1
COc1ccc(-n2ncc3c2CC(C)(C)CC3NC(=O)c2ccnn2C)cc1 (centres undefined)
  4956, 1.9, 8, -21, 4, 7, 2
CCN1CCc2c(sc(NC(=O)c3cc4ccccc4cc3OC)c2C(N)=O)C1
  7828, -10.0, 60*, -5, -14, 4, 24
CC1CCCC(NC(=O)Cn2cc(Br)ccc2=O)C1C (centres undefined)
  8313, -3.3, x, -28, -4, 9, 9
COCCNC(=S)N1CCN(c2cccc(C)c2C)CC1
  4309, -3.1, -4, -13, -2, -6, 11
CCCn1nc(C(=O)OCC(=O)c2ccccc2)c2ccccc2c1=O
  4417, 2.2, -9, -6, 11, 4, 8
CC(=O)c1ccc(N(CC(=O)NC2CCCCC2)C(=O)CNC(=O)c2ccco2)cc1
  4608, 0.2, -9, 3, 0, 5, -1
COc1cccc(C(=O)Nc2sc3c(c2C(=O)O)CCCC3)c1
  3817, 30, -2, -11, 15, 9, 3
O=C(c1ccc(Br)o1)N1CC=C(c2ccccc2)CC1
  3661, 7.6, x, -4, -3, 15, 13
O=C(Nc1ccccc1N1CCOCC1)C1CCN(S(=O)(=O)c2cccc(C(F)(F)F)c2)CC1
  2076, 0.6, 1, -16, 8, 13, 1
COc1ccc(CN2CCC(n3nccc3NC(=O)CCOc3ccccc3)CC2)cc1C
  6197, 1.0, -3, -33, 3, 7, 7
CCOC(=O)c1csc(NC(=O)CSc2nnnn2-c2ccc3c(c2)OCCO3)n1
  2406, 19, 9, -24, 13, 5, 1
CC(C)N(C(=S)Nc1ccc(S(=O)(=O)N2CCOCC2)cc1)c1ccccc1
  3361, 2.2, x, x, 0, 13, -2
O=C1CSC(c2ccccc2)N1c1ccc([N+](=O)[O-])cc1 (centres undefined)
  4194, 4.2, 1, -16, 17, 14, 3
Cc1ccccc1N1Cc2ccccc2C1
  2136, 7.8, 6, -13, 2, 8, 7
Cc1cccn2c(=O)nc(SCC(=O)N3CCC(Cc4ccccc4)CC3)nc12
  u, 27, -2, -5, 15, 8, -4
O=C(O)c1ccc(SCc2cnc(Cl)s2)cc1
  3346, 11, -12, -1, -1, 9, 3
CS(=O)(=O)CCSc1ncccc1C(=O)NCc1cccs1
  x, 5.0, -6, x, 12, 17, 4
Cc1c(NC(=O)c2ccc(CC(C)C)o2)c(=O)n(-c2ccccc2)n1C
  3799, -2.5, -14, 3, 11, -2, 3
CCOC(=O)C1C2NC(=O)N(Cc3ccccc3)C1(C)Oc1c(OC)cccc12 (centres undefined)
  7987, 3.9, -3, -16, 12, 11, 4
CC1(C)CC(NCCC(c2ccccc2)c2ccco2)CCO1 (centres undefined)
  3341, 6.1, 0, -6, 5, 13, 1
O=C(CN1C(=O)C(c2ccccc2)Oc2cccnc21)NCc1ccccc1F (centres undefined)
  5752, 2.8, 6, -19, 9, 0, -3
Cc1cccc(N2CCN(S(=O)(=O)c3ccc4c(c3)NC(=O)CO4)CC2)c1C
  5577, 1.0, 8, -4, -8, -2, -5
O=C(CSc1nc2ccccc2c(=O)n1-c1ccccc1)c1c[nH]c2ccccc12
  2530, x, 3, -20, x, x, x
CCNC(=O)c1ccc(C2SCC(=O)N2Cc2ccco2)cc1 (centres undefined)
  4493, -4.4, 4, -4, -1, -1, 6
COc1ccc(Cc2nn[nH]n2)cc1
  10332, 6.0, 1, -7, 6, 5, 13
Cc1[nH]c2ccc(C(=O)O)cc2c1C
  12496, 1.2, 6, -13, 1, 13, 16
COc1ccccc1NC(=O)Cn1cc(C#N)c2ccccc21
  10939, 2.0, -1, -10, -10, -8, 9
Nc1nc(N2CCOCC2)nc2ccccc12
  2503, 7.4, 5, -23, 2, 16, 0
C/C=C/c1ccc(OCC(=O)OCc2csc(CC(=O)Nc3ccccc3C)n2)c(OC)c1
  5640, 0.3, -11, -8, 0, -1, -3
CC(C)(C)OC(=O)N1CCOCCOCCN(C(=O)OC(C)(C)C)CCOCCOCC1
  4089, 0.8, 6, -5, -4, -2, 0
Cc1ccc2c(CN3CCN(Cc4ccccc4)CC3)cc(=O)oc2c1
  4070, 1.6, 7, 0, 3, -4, 2
CCOc1ccc(C(=O)Nc2ccc3c(c2)OCCO3)cc1OC
  10642, -2.0, 3, -40, -6, 2, 2
CCOC(=O)N1CCN(C(=O)c2cnc3n(c2=O)CCS3)CC1
  2796, 0.9, -4, -23, 4, 12, 4
COc1ccc(C(=O)N2CCN=C2SCc2cccnc2)c(OC)c1
  5376, 0.6, -6, -13, 3, x, x
O=C(NN=Cc1ccc2c(c1)OCO2)c1ccc(NC(=O)c2ccccc2Cl)cc1
  x, 4.1, x, x, 6, 5, -1
COC(=O)c1c(C)nc2nonc2c1N
  5953, 7.0, x, -36, 4, 14, 11
COc1ccc(NC(=O)CN(C)C(=O)CCCN2C(=O)c3cccc4cccc(c34)C2=O)cc1
  u, 0.9, -8, -3, -1, -7, -4
CCC(Cc1ccccc1)NC(=O)C1CCCCC1 (centres undefined)
  2952, -2.9, 5, -14, -2, 1, 7
Cc1c(C(=O)NCc2cccnc2)oc2ccc(S(=O)(=O)N3CCC4(CC3)OCCO4)cc12
  9297, 1.1, -5, -8, 1, -4, 5
COc1ccc2c(CN3CCN(S(=O)(=O)c4cccs4)CC3)cc(=O)oc2c1
  2607, 4.8, 8, -8, -2, 13, 10
Cc1cc(C)cc(NC(=O)N2CCCC2C(=O)Nc2ccc(-n3cnnn3)cc2)c1 (centres undefined)
  3140, 7.2, x, -12, -1, 8, 5
CCN(CC(=O)Nc1cc(C)on1)CC(=O)Nc1ccccc1C(F)(F)F
  2610, 0.7, x, -10, 2, -2, -4
CC1(C)CC(=O)C2=C(C1)N(Cc1cccnc1)C(=O)C2(NC(=O)C1CC1)C(F)(F)F (centres undefined)
  10526, -2.0, -12, -25, -5, 5, 4
CCCCn1c(NC(C)CC)nc2c1c(=O)[nH]c(=O)n2C (centres undefined)
  3242, 2.7, 0, 0, 3, 5, 1
Cc1ccc(CNc2ncccc2-c2nc3cc(Cl)ccc3o2)cc1
  22598*, -1.7, 0, -7, 5, 2, 9

Another view of part of the listing above:
Compound	Bead autofluor	RN4220 kill	BJeLR viability	PrP UTR inh	ugtP null kill	Mtb hypoxia rep	Mtb hypoxia rep growth
COCCNC(=S)N1CCN(c2cccc(C)c2C)CC1	4309	-3.1	-4	-13	-2	-6	11
CCCn1nc(C(=O)OCC(=O)c2ccccc2)c2ccccc2c1=O	4417	2.2	-9	-6	11	4	8
CC(=O)c1ccc(N(CC(=O)NC2CCCCC2)C(=O)CNC(=O)c2ccco2)cc1	4608	0.2	-9	3	0	5	-1
